Screening data as filed in PubChem.
MLL AF4-AF9 inh – inhibitors of AF4 peptide binding to AF9, primary screen, biochemical, AlphaScreen, biotin-AF4 peptide, FLAG-AF9, single point; inhibition, % at 10 µM; 350,000 tested, 0.47% active; AID 651704, 2012;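 active = every replicate reaching a set inhibition limit, whatever the replicate mean, cut at about 25% in these data; inconclusive = mean inhibition reaches that limit but some replicates miss it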;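 also: 0% = plate neutral control median and 100% = total signal loss; the record names both 10 and 1 µM as test concentration; the first replicate is given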
Vif TR-FRET – inhibitors of Vif binding to APOBEC3G peptide, primary screen, biochemical, TR-FRET, GST-Vif 1-94, biotin-A3G peptide, dose response retest (AID 1117319). TR-FRET GST-Vif / biotin-A3G peptide binding; higher % means a stronger effect; test concentration not given here; strong numbers were not always called active. one-dose inhibition, %; IC50 in µM for titrated hits. 260,000 tested, 0.57% active;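 active = above the screen mean plus three standard deviations and confirmed in dose response; inconclusive = results disagree or hit not tested in dose response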;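 also: Vif residues 1-94 fused to GST binding biotinylated APOBEC3G peptide 110-148; 0% = full assay without inhibitor and 100% = GST in place of GST-Vif; retest series ran down from 100 µM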
RanGTP-Imp inh – inhibitors of RanGTP-importin-beta interaction, primary screen, biochemical, FRET, CFP-Ran, YFP-importin-beta, homogeneous. cell-free CFP-Ran/YFP-importin-beta FRET ratio. inhibition, % (no concentration beside the values). 300,000 tested, 1.1% active;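 active = most replicates above 15%; inconclusive = exactly half above 15%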;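 also: 0% = DMSO wells and 100% = Ran loaded with GDP instead of GTP; wells of about 40 µL received 100 nL stock; the first replicate is given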
T cruzi repl – inhibitors of intracellular T. cruzi growth, primary screen, luminescence, NIH3T3 host cells; T. cruzi beta-gal in NIH3T3, 90 h; inhibition, % (test concentration not listed); 300,000 tested, 1.4% active; AID 1885, 2009;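 active = mean inhibition across valid replicates above about 55%, limit read from the data; inconclusive = mean below that limit but half or more replicates reach it; inactive = mean below it, under half of replicates reach it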;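 also: signal also drops with host cell toxicity which is not excluded here; 0% = plate median of DMSO wells and 100% = zero luminescence signal; higher percent means less beta-gal luminescence so fewer parasites; stock transfer was 50 nL into about 50 µL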
LANA-H2A inh – blockers of LANA interaction with H2A/H2B – biochemical, FP readout, HTS, primary screen | cell-free LANA-H2A/H2B peptide, fluorescence polarization | inhibition, % (concentration not given with the values) | Protein LANA1 (Human herpesvirus 8 type P (isolate GK18)), Q9QR71 | 320,000 tested, 0.6% active; in the data active = inhibition mostly above about 10%, no sharp cut-off; inactive = mostly below about 6.7%;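 also: stock transfer was 7.5 nL into about 10 µL; 0% = median of vehicle wells and 100% = median of positive control wells; one replicate is shown; the record names a cut of 25% in any replicate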
Target sequence (Q9QR71 whole entry, looked up): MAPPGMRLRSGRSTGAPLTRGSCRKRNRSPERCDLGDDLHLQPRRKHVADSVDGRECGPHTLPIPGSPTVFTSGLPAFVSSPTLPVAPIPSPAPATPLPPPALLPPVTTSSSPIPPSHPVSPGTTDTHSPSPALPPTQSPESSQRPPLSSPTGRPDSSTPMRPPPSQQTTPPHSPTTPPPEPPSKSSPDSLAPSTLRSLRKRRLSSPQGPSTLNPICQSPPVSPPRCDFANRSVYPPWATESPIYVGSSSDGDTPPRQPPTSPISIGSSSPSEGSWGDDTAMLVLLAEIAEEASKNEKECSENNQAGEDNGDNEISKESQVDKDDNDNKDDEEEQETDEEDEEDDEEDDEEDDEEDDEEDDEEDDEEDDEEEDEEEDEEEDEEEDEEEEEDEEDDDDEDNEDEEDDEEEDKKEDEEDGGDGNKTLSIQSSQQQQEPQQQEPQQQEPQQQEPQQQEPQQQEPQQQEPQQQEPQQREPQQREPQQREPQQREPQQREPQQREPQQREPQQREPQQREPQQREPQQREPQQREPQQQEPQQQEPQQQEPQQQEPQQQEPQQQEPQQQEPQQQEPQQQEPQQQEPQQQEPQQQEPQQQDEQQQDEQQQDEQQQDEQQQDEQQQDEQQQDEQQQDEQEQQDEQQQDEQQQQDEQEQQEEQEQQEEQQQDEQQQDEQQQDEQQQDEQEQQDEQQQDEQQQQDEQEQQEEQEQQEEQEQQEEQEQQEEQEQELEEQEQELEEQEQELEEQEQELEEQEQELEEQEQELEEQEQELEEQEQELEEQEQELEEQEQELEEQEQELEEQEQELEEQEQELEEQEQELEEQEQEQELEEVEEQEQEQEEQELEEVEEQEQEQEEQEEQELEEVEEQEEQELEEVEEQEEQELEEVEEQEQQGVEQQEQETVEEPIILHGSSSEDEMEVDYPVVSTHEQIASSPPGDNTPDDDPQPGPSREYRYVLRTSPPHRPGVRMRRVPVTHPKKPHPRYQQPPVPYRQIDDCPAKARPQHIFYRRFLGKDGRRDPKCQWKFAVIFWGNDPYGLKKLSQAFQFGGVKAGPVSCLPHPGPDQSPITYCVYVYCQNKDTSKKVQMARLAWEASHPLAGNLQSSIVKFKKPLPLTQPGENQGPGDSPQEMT
Beta cell apopt – inhibitors of cytokine-induced beta cell apoptosis, primary screen, luminescence; INS-1E cytokine-induced death, ATP luminescence, 48 h; percent of positive-control rescue, neutral wells zero; protection from apoptosis, % (concentration not given with the values); 300,000 tested, 0.8% active; AID 435005, 2010;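 active = all replicates at 75% or more, or half of them and the mean; inconclusive = half reach 75% but not the mean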;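 also: 0% = cytokine-treated negative control wells and 100% = positive control rescue; higher means more ATP so stronger rescue from cytokine killing; wells of about 40 µL received 100 nL stock; the first replicate is given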
A1 inh – caspase 3/7 activation in MEF A1-2A-BIM cells, primary screen, A1 inhibitor project, cell-based, luminescence, HTS; Caspase-Glo 3/7 luminescence, 3 h; percent of clofoctol response, vehicle zero; caspase activation, % (no concentration beside the values); 330,000 tested, 0.066% active;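 active = over half of replicate activation scores above 10%, or exactly half above 10 with the replicate mean above 10; inconclusive = replicate mean below 10 yet half the replicates above 10; inactive = over half of replicates below 10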;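 also: wells of about 30 µL received 50 nL stock; many hits fall short of the cut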
Calb FLC – C. albicans growth inhibition with fluconazole, primary screen, CaCi-2 strain, Alamar Blue fluorescence. C. albicans CaCi-2 (fluconazole-resistant clinical isolate) + fluconazole, 48 h. growth inhibition, % (concentration not given with the values). 300,000 tested, 0.57% active;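 active = most replicates above 75%; inconclusive = exactly half above 75%; inactive = most below 75%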;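 also: all wells also contain fluconazole at 8 µg/ml as a sub-toxic cotreatment; 0% = median of DMSO wells and 100% = median of geldanamycin control wells; wells of about 8 µL received 7.5 nL stock; the first replicate is given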
The depositor's hits bear a star; u = inconclusive; x = no result given; & = joins results of further samples.

SMILES | MLL AF4-AF9 inh | Vif TR-FRET | RanGTP-Imp inh | T cruzi repl | LANA-H2A inh | Beta cell apopt | A1 inh | Calb FLC
COc1ccc(CC(=O)N(C)CC(=O)Nc2ccccc2SC)cc1 | -2.5 | -3.5% | 1.6 | 0.4 | -4.9 | x | -0.4 | -10.4
COc1ccc(CNC(=O)c2cc(C3CC3)nc3c2cnn3C(C)C)cc1 | 32.3* | -1.4% | x | x | -5.5 | 10.9 | -0.1 | x
CCn1cc(C(=O)OC)c(=O)c2ccc(C)nc21 | -0.6 | x | -4.1 | -16.6 | -0.1 | -4.8 | -0.4 | -1.3
O=C(O)c1ccc(CNCc2cccc(Oc3ccccc3)c2)cc1 | -1.0 | -0.2% | 0.1 | -19.1 | -2.1 | 4.0 | 0.8 | 2.0
COc1ccc(/C=C(/NC(=O)c2ccccc2)c2nc3ccc(Cl)cc3[nH]2)cc1OC | 5.3 | 32.4% | 1.2 | 6.2 | -0.4 | 4.6 | 0.1 | 70.2*
Cc1cc(=O)oc2cc(OCCSc3nnc(-c4ccccc4)o3)ccc12 | x | x | -1.1 | 7.9 | 2.2 | 3.4 | 0.2 | 46.2
CCCc1nnc(NC(=O)CCC(=O)N2CCN(S(=O)(=O)c3ccc(C)cc3)CC2)s1 | -4.7 | -0.1% | 2.5 | 5.4 | -2.5 | 1.2 | -0.6 | 11.8
CC(Oc1ccccc1F)C(=O)NNC(=O)c1ccc(F)c(S(=O)(=O)N2CCOCC2)c1 (stereo not drawn) | -1.7 | x | 1.6 | -10.0 | 5.4 | -1.2 | 0.1 | 11.8
Cc1cccc(C)c1NC(=O)CNC(=O)C1CCCN(C(=O)c2ccc(Cl)cc2)C1 (stereo not drawn) | 2.1 | x | x | x | -2.8 | -5.9 | 0.1 | x
Cc1ccc(CN2CCN(Cc3c(C)nn(-c4ccc(F)cc4)c3C)CC2CCO)o1 (stereo not drawn) | -0.4 | x | 2.4 | 0.0 | 3.3 | 2.3 | 1.3 | -29.7
COc1ccc(C(=O)Nc2cccc(C(=O)N3CCCCC3)c2)cc1 | -0.5 | x | 2.2 | -2.1 | -1.9 | 2.5 | 1.3 | 9.1
CCCNC(=O)c1ccc(COc2ccc(CCC)cc2OC)o1 | 0.5 | x | 4.0 | 0.6 | 11.2 | x | 0.4 | -8.0
C=CCOC(=O)C1=C(C)OC(N)=C(C#N)C1c1ccc(OC)c(CSc2ccccn2)c1 (stereo not drawn) | 2.7 | x | u | -3.8 | -7.1 | -6.9 | 0.8 | -5.9
CC1(C)C2CCC1(C)C(OC(=O)c1ccccc1C(=O)O)C2 (stereo not drawn) | -7.9 | 0.8% | u | 13.6 | 5.0 | -3.2 | -0.1 | 3.3
C=CCC[C@@H](Cc1ccc(F)cc1)C(=O)OC[C@@H](Cc1c[nH]c2ccccc12)NC(=O)[C@@H](CC=C)CC(=O)N[C@H](CO)Cc1ccccc1 | 3.7 | x | x | x | 3.4 | -3.2 | 0.1 | x
COc1ccc(C(=O)/C=C\c2ccc(NC(=O)c3cccs3)cc2)cc1 | x | 0.1% | 22.7* | 9.7 | -0.6 | 13.9 | -0.3 | -4.9
O=C(NCCN1C(=O)S/C(=C\c2cccs2)C1=O)[C@H](Cc1ccccc1)N1C(=O)c2ccccc2C1=O | -1.4 | -2.1% | 8.3 | 11.7 | -9.2 | -7.0 | 1.0 | 24.9
COc1ccc2ncc(OC(C)=O)cc2c1 | -2.7 | x | 0.5 | 2.4 | 0.6 | -4.1 | -0.4 | -0.1
COc1ccccc1CC(=O)Nc1ccc(S(=O)(=O)N2CCN(C)CC2)cc1 | 1.9 | x | 0.8 | -9.1 | -4.9 | -27.1 | -0.6 | -4.1
CCc1nn(CCCC(=O)NCc2ccc(OC(C)C)cc2)c(=O)c2cc3occc3n12 | 5.0 | x | 0.6 | 8.1 | -5.2 | 10.6 | 0.1 | -17.4
CCCN1CCN(C(=O)C2CCN(c3ncnc4c3nc3n4CCCCC3)CC2)CC1 | -6.0 | x | 3.7 | -7.7 | -6.1 | -1.0 | -0.8 | -0.3
COC(=O)C1CCN(C(=O)COC(=O)/C=C/c2ccc(O)c(OC)c2)CC1 | -3.6 | x | x | x | -5.6 | -2.1 | 0.0 | x
Cc1ccc(C)c(-n2nnnc2SCC(=O)NNC(=O)c2ccco2)c1 | -1.6 | 8.1% | -0.8 | 9.0 | 1.7 | -0.4 | 0.3 | -8.9
COc1ccc(N(C(=O)COc2ccc(C)cc2)S(=O)(=O)c2ccc(C)cc2)cc1 | x | 6.0% | 2.8 | -35.5 | -2.8 | -0.6 | 0.4 | 4.8
Cc1ccc(C(=O)c2coc3c2C(=O)C(=O)c2ccccc2-3)cc1 | x | 15.9% | -2.2 | 2.1 | -0.2 | 0.7 | -0.9 | 79.7*
SMILES | MLL AF4-AF9 inh | Vif TR-FRET | RanGTP-Imp inh | T cruzi repl | LANA-H2A inh | Beta cell apopt | A1 inh | Calb FLC
Cc1cc(C(=O)NC(=S)Nc2cccc(NC(=O)C(C)C)c2)ccc1[N+](=O)[O-] | -6.9 | 3.5% | -1.4 | 2.0 | 1.3 | 3.3 | -6.5 | -10.9
COCC(C)N=CC1=C(O)CC(C)(C)CC1=O (stereo not drawn) | x | 3.5% | 0.1 | -5.8 | -1.8 | -8.3 | -6.9 | 0.7
CCCCCCCNC(=O)C1(CC2CC(c3ccccc3)=NO2)CCNCC1 (stereo not drawn) | -46.9 | x | x | x | -6.6 | -4.0 | 0.9 | x
O=C(c1ccccc1)N1CCn2c1nc1ccccc12 | -0.6 | x | 1.0 | 0.7 | 0.0 | 0.5 | 0.0 | -4.1
CNC(=O)c1c2c(nc3ccc(Br)cc13)CCCC2 | -1.3 | -12.2% | -5.2 | 8.7 | -3.1 | 1.7 | 0.1 | 0.7
CCCCNC(=O)Cn1cnc2sc(C)c(S(=O)(=O)N3CCN(c4ncccn4)CC3)c2c1=O | 0.6 | -0.5% | 0.3 | -2.8 | -1.6 | -1.2 | -0.1 | -20.3
C=CCn1c(=O)c(C(=O)Nc2ccc(C)cn2)c(O)c2ccccc21 | -0.6 | -2.2% | -4.3 | 0.4 | 0.8 | 45.9 | -0.5 | 6.0
CCC1=C(OC(=O)N(CC)CC)N2C(=O)OC(=NCCc3c[nH]c4ccccc34)[C@]2(Cc2ccccc2)[C@H]2C1=CC[C@H]1C(=O)N(CC(=O)OC)C(=O)[C@H]12 | 4.1 | -4.5% | 4.1 | 18.6 | -1.0 | 4.2 | -0.8 | 40.7
O=[N+]([O-])c1cccc(S(=O)(=O)c2ccc(NCCOCCO)c([N+](=O)[O-])c2)c1 | 0.6 | -7.9% | -0.9 | 10.3 | -1.6 | 0.9 | 0.4 | 2.1
O=c1cc(CN2CCN(Cc3ccccc3)CC2)c2cc(Cl)ccc2o1 | x | 11.4% | -0.7 | 43.0 | x | x | x | -4.3
COc1ccc(N(CC(=O)Nc2ccccc2F)S(=O)(=O)c2ccc(C)c([N+](=O)[O-])c2)cc1 | 3.2 | 3.9% | 0.6 | 32.8 | 6.2 | x | 0.5 | -2.6
Cc1ccc(NC(=O)CN2C(=O)N/C(=C\c3cccnc3)C2=O)cc1 | -0.7 | x | -0.6 | -1.9 | -0.4 | -5.4 | 0.0 | 13.9
COc1ccccc1CNC(=S)Nc1ccc2nc(N3CCN(C)CC3)cc(C)c2c1 | 27.2* | 18.4% | 1.4 | 57.4* | 3.6 | -4.8 | 0.6 | -5.1
Cc1ccc(C(=O)C2=C(O)C(=O)N(c3ncccn3)C2c2ccc(F)cc2)o1 (stereo not drawn) | -1.3 | 21.8µM* | u | 3.5 | 4.6 | -4.6 | 1.6 | -10.5
COc1ccc(/C=N/NC(=O)c2cccc(NC(=O)c3ccccc3Cl)c2)c(OC)c1 | 1.0 | 27.0% | 7.0 | -12.1 | -3.6 | 2.1 | 1.0 | -0.7
COc1ccc(-c2c(NC(=O)CC(C)C)n(C)c3ccccc3c2=O)cc1OC | -0.6 | -8.0% | 2.5 | -7.3 | -3.2 | -3.4 | -0.3 | 2.4
CC(C)Nc1nc(-c2cccnc2)nc(-c2ccccc2)c1C#N | -2.6 | -14.9% | -4.0 | 7.2 | -1.1 | 2.8 | -0.9 | 2.3
O=C(COC(=O)c1cccs1)Nc1ccccc1C(F)(F)F | -1.5 | u | 2.3 | -3.9 | 12.3 | 0.6 | 0.0 | -7.1
Cc1ccc(NC(=O)CN2C(=O)NC(C)(CC(C)C)C2=O)cc1F (stereo not drawn) | -2.7 | -0.9% | x | x | -5.1 | -10.5 | -0.6 | x
COc1ccc(C)cc1N(C(=O)c1ccccc1)c1nc2ccccc2s1 | x | x | u | 28.7 | -3.5 | x | -1.0 | -8.7
CC(=O)c1c(C)[nH]c(C(=O)CSc2nnc(-c3cccs3)n2Cc2ccccc2)c1C | x | -3.7% | -4.0 | -3.5 | -13.2 | 1.3 | -0.7 | 35.5
COc1ccc(-n2cc(-c3ccc(Cl)cc3)[nH]c2=S)cc1 | 1.2 | -54.3% | -0.3 | 7.0 | -4.2 | 0.4 | 0.8 | 1.2
Cc1onc(-c2c(F)cccc2Cl)c1C(=O)N1CCCc2ccccc21 | x | -1.9% | -0.9 | 18.4 | -0.1 | -5.3 | -0.8 | 0.2
O=C(/C=C/c1cccc(Cl)c1)N1CCC(Cc2ccccc2)CC1 | x | 0.7% | -11.9 | 2.7 | -2.6 | -5.2 | -1.1 | 0.8
Cc1ccccc1N1CCN(c2ncnc3scc(-c4cccs4)c23)CC1 | x | 5.7% | -0.7 | 16.5 | 3.0 | 1.9 | 0.1 | 18.2
SMILES | MLL AF4-AF9 inh | Vif TR-FRET | RanGTP-Imp inh | T cruzi repl | LANA-H2A inh | Beta cell apopt | A1 inh | Calb FLC
COc1ccc(S(=O)(=O)N(CC(=O)NCc2ccco2)c2ccccc2)cc1OC | x | 19.9% | -4.2 | 0.4 | 3.3 | 2.0 | -1.6 | 4.8
N#Cc1ccc(C(=O)Nc2nnc(-c3ccco3)o2)cc1 | 2.4 | 8.1% | 4.4 | 0.4 | -6.9 | -1.3 | -4.1 | 30.8
O=C1NN(c2ccc(Br)cc2)C(=O)/C1=C\c1ccc(O)cc1O | -2.1 | -1.9% | 142.0* | 4.4 | 4.9 | -3.0 | -0.4 | 98.0*
CCOC(=O)C1(C)C=C(Nc2ccc(O)cc2)C(=O)N1c1ccc(O)cc1 (stereo not drawn) | 10.9 | u | -5.7 | -5.5 | 1.8 | 0.2 | 1.4 | 11.2
COc1ccc(-c2cc(C(=O)Nc3c(C)nn(Cc4ccc(Cl)cc4)c3C)no2)cc1 | x | -14.6%&-2.1% | -3.2 | 9.6 | 1.3 | 16.3 | 1.1 | 2.1
Cc1cc(C)c(C(=O)CSc2nnc(N)s2)c(C)c1 | -0.7 | 1.9% | -1.7 | -10.4 | -3.5 | -5.5 | 0.2 | -15.8
COc1ccccc1C(=O)N/N=C/c1ccc(Cl)s1 | 1.3 | 0.4% | 3.2 | -5.6 | 4.9 | -2.5 | -0.2 | u
CC(=O)N(CC(C)(C)CC=C(C)C)c1ccccc1 | x | -0.8% | 0.9 | 9.8 | -2.8 | 3.0 | 0.4 | -1.5
CCCNC(=O)/C=C/c1ccc(S(=O)(=O)Nc2ccccc2OC)cc1 | 1.7 | 7.8% | -0.9 | -9.4 | -1.9 | 5.2 | -0.4 | 7.2
Cc1ccc(NC(=O)C(=O)NCc2ccco2)c(C)c1 | -1.1 | 8.7% | -1.8 | -1.9 | 0.6 | -15.2 | -0.2 | -1.3
